TRPML1 blocker = blocks the human TRPML1 channel. Q9GZU1. TRPML1-inducible cells, Ca2+ dye fluorescence, FDSS; hits give low values; inhibition of EC80 agonist-evoked calcium signal. activity change, negative = inhibition, % (no concentration beside the values). hit rate 0.02% among 390,000. AID 624415; in the data active means activity change below about -50%; inconclusive means about -30% to -50%; inactive means above about -30%;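 also: stimulus is agonist 54-4 at its EC80 concentration; % is scaled to controls: 0 for no effect and ±100 for the full control effect; compound concentration not given in the record; the text of the record puts the active cut at -80%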
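TRPML1-DL cells, Tet-induced overnight (~16 h, 37 °C) at 1,500 cells/well, were loaded with Ca8 no-wash dye plus quencher for 45-90 min at room temperature. Compounds were pinned during FDSS kinetic reading; agonist 54-4 at EC80 (4 uM final) then added.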
D2 PAM = human D2 receptor positive allosteric modulation | hit rate 0.23% among 360,000 | potentiation, % (no concentration beside the values) | P14416 | AID 624464 | DiscoveRx D2 beta-arrestin cells, luminescence, 90 min; 100% = 57 uM dopamine signal; active = potentiation of 50% or more; inconclusive = 30% to 50%; inactive = 30% or less;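 also: compound concentration not given in the record; tested on top of an EC20 dose of dopamine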
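D2 cells co-treated with compound plus 50 nM dopamine (EC20) for 90 min at 37 deg C to detect potentiation. Beta-arrestin recruitment was read as enzyme-fragment luminescence after 1 h at ambient temperature. Full response was set by 57 uM dopamine.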
TRPV1 potentiator = human TRPV1 potentiation; Q8NER1; TRPV1-expressing cells, Fluo-8 calcium influx, capsaicin EC20 potentiation; host cell line not named in the record; control for the full effect not named in the record; potentiation, % at 8.33 µM; hit rate 0.02% among 320,000; active means potentiation above 80%; inconclusive means 30% to 80%; inactive means below 30%; also: 0% is about no effect
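Cells expressing TRPV1 were dye-loaded with Fluo-8 and read kinetically: 10 s baseline, 3 min after compound (agonist portion), then 2 min after EC20 capsaicin (allosteric enhancer portion). Calcium-bound dye fluorescence at 480/520 nm.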
CtBP-E1A inh = blocks the CtBP interaction with E1A; AlphaScreen GST-E1A/His-CtBP binding, 1536-well; hits give low values; control for the full effect not named in the record; activity change, % (concentration not given with the values); hit rate 0.49% among 340,000; AID 651724; in the data active means activity change below about -65%; inconclusive means about -30% to -65%; inactive means above about -30%; also: % is scaled to controls: 0 for no effect and ±100 for the full control effect
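Homogeneous bead-based format: GST-tagged E1A captured on glutathione donor beads, His-tagged CtBP on nickel acceptor beads; compounds precede bead addition by 2 h at 37 °C.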
Six1-Eya2 inh = blocks human Six1 binding to Eya2. Q15475+O00167. hit rate 0.56% among 360,000. AlphaScreen GST-Six1/His-Eya2 binding, biochemical; hits give low values; control for the full effect not named in the record. activity change, % (test concentration not listed); in the data active = activity change below about -65%; inconclusive = about -30% to -65%; inactive = above about -30%; also: % is scaled to controls: 0 for no effect and ±100 for the full control effect; compound concentration not given in the record
Target sequence (O00167 whole entry, looked up): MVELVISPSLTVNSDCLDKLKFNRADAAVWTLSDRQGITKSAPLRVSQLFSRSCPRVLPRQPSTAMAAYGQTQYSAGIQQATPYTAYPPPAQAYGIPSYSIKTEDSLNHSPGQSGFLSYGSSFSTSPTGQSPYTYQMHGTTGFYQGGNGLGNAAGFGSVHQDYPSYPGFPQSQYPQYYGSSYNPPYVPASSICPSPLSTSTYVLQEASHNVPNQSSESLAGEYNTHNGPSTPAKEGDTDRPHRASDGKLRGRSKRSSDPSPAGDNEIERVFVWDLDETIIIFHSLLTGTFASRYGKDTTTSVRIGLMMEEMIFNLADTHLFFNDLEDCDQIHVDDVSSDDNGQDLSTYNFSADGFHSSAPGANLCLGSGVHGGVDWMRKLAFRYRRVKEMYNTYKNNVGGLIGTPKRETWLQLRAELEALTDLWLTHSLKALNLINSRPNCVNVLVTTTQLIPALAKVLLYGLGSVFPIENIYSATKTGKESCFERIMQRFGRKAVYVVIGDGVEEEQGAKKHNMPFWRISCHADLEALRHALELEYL
Target sequence (Q15475 whole entry, looked up): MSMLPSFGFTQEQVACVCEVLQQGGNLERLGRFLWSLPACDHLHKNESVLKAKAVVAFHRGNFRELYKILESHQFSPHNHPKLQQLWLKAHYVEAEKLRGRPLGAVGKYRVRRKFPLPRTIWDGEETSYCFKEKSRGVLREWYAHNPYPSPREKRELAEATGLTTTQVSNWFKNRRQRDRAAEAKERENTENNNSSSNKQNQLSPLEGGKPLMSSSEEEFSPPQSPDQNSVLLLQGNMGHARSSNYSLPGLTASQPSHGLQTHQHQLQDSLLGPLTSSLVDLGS
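GST-Six1 + His-Eya2 (5X stock: 250/500 nM); Tris pH 8.0, 300 mM NaCl, 0.05% BSA, 0.02% Tween 20; GSH donor/Ni acceptor beads; 1 h 37 °C dark; AlphaScreen readout.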
TRPML1 agonist = activates the human TRPML1 channel | Q9GZU1 | TRPML1-expressing cells, Ca2+ dye fluorescence, FDSS; host cell line not named in the record; reference of the full effect not given here | activation, % (no concentration beside the values) | hit rate 0.12% among 410,000; in the data active = activation above about 50%; inconclusive = about 30% to 50%; inactive = below about 30%; also: 0% is about no effect; the text of the record puts the active cut at 80%
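TRPML1-DL cells, Tet-induced overnight (~16 h, 37 degrees C), loaded 45-90 min at room temperature with Ca8 no-wash calcium dye plus quencher. FDSS fluorescence: 10 s baseline, compound pin-transfer, 110 s agonist read, then EC80 54-4 (4uM final) and 110 s antagonist read.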
* hit, by the source's call; ? = inconclusive; . = not tested or not shown; & = joins results of further samples.

SMILES	TRPML1 blocker	D2 PAM	TRPV1 potentiator	CtBP-E1A inh	Six1-Eya2 inh	TRPML1 agonist
CCOC(=O)C1CCN(C(=O)c2cc3cc(Br)ccc3oc2=O)CC1	15	-2	-7	-1	7	-0.4
Cc1ccc(C(=O)COC(=O)c2cccs2)cc1	20	-6	-6	15	11	2.3
CC(=O)c1ccc2cc3c(cc2c1)OCO3	13	-4	.	4	1	-0.6
COC(=O)[C@@H](NC(=O)NCc1ccc(F)cc1)C(C)C	-1	-11	2	4	3	-0.3
Cc1ccccc1-c1cc(C(=O)NCc2ccc(OC(F)(F)F)cc2)nn1CC1CC(c2cccc([N+](=O)[O-])c2)=NO1 (stereo unspecified)	17	-41	.	-3	-8	-0.5
O=C(Cn1c(=S)nc2ccccn21)N1CCc2ccccc2C1	7	-6	-1	-3	0	-0.9
CN(C)C(=O)NC1C=CS(=O)(=O)C1 (stereo unspecified)	13	-3	-4	1	12	0.1
COc1ccc(C2=NOC(C(=O)Nc3ccc4c(c3)OCCO4)C2)cc1OC (stereo unspecified)	19	-9	-2	-5	-3	0.7
CCc1nnc(NC(=O)CSc2nnc(COc3cccc(C)c3)o2)s1	0	-20	-5	-30	-19	-1.1
CCOC(=O)NN1C(=O)c2ccccc2NC12CCCC2	-9	-11	0	-10	3	-0.5
O=C(CC(=O)Nc1ccccc1[N+](=O)[O-])Nc1ccccc1[N+](=O)[O-]	-13	-20	6	-20	-9	0.5
Cc1ccc(OC(=O)CCNC(=O)c2ccccc2Cl)c(Br)c1	-1	6	-25	-11	1	3.0
CCCN(C(=O)CSCc1ccccc1C)c1c(N)n(Cc2ccccc2)c(=O)[nH]c1=O	-2	-16	-1	8	0	-0.2
O=C(CSc1nc2c(c(=O)[nH]1)CN(Cc1ccc(F)cc1)CC2)Nc1ccc(F)cc1	-14	-1	9	-4	-10	0.5
CN1C2CCC1/C(=C\c1ccccc1)C(=O)/C2=C\c1ccccc1	36	-3	-3	6	1	0.3
Cc1ccc(CN2C(=O)C(CC(C)C)Nc3ncnc(N4CCN(c5ccccc5)CC4)c32)cc1 (stereo unspecified)	40&41	-46&-12	.	-3&-20	-22&-25	-0.6&0.4
CC1CCN(c2c(NCC3CCC(C(=O)NCc4ccc(F)cc4)CC3)c(=O)c2=O)CC1 (stereo unspecified)	-8	-3	26	-5	0	-0.3
CCOC(=O)Cc1csc(NC(=O)COc2ccccc2)n1	-14	3	2	50	21	4.2
CCN(C(=O)COC(=O)CNC(=O)c1ccc(C)s1)c1ccccc1	31	-3	13	2	-2	1.2
CCN(CCn1cccn1)Cc1cn[nH]c1-c1cccc2ccccc12	0	-4	19	.	3	0.4
O=S(=O)(Nc1ccc2ccccc2n1)c1ccccc1Cl	22	-1	3	7	0	0.4
O=C(CCCOc1ccccc1)NCc1ccco1	18	0	11	-4	7	0.0
COc1ccccc1-c1nnc(SCC(=O)Nc2cc(C)on2)o1	2	-11	13	-22	-18	-0.9
Nc1[nH]c(=O)[nH]c(=O)c1N=Nc1ccccc1Cl	3	-7	4	.	4	-0.5
CC(C)(C)NC[C@H](O)COc1cccc2c1CCCC2=O	-6	-12	20	-10	5	-0.3
CCCn1c(=O)c(C(=O)Nc2ccccc2C(=O)OCC)c(O)c2ccccc21	-3	-4	7	10	7	0.2
Cc1nn(CC(=O)N2CCN(c3ccccc3)CC2)c(=O)c2cccn12	-12&0	-7	-8	8	4	0.1&-0.3
CSc1ccc(CN(C)CC(=O)N(C)CC(=O)Nc2ccccc2Br)cc1	53	-3	-9	-8	-4	0.3
CCOC(=O)C(C)n1cnc2c1c(=O)[nH]c(=O)n2C (stereo unspecified)	-5	1	-1	5	0	-0.5
Cc1ccc(OC(=O)COc2ccccc2)c(-n2nc3ccccc3n2)c1	21	-5	-3	11	22	3.4
Cn1c(=O)c2c(ncn2CC(=O)NC(C)(C)C)n(C)c1=O	-7	-7	3	12	3	0.8
O=C(COC(=O)c1ccc2c(c1[N+](=O)[O-])C(=O)c1ccccc1C2=O)NC1CC1	9	7	4	?	?	1.0
S=c1[nH]ccn1-c1cccc(Cl)c1	-5	-3	-6	16	11	0.4
O=C(CCc1nc2ccccc2c(=O)[nH]1)Nc1nnc(SCc2ccc(F)cc2)s1	-10	19	2	-3	7	0.1
O=C(NCc1ccccc1Cl)C1CCN(C(=O)c2ccc(F)cc2)CC1	11	-2	.	2	7	-0.5
CCOC(=O)CNC(=O)CN1C(=O)CCS(=O)(=O)c2ccccc21	17	-1	-1	-2	6	1.0
CCOc1ccc(OCCN2C(=O)c3ccccc3C2=O)cc1	34	11	-1	8	9	0.0
Cc1ccc(C(=O)N/C(=C\c2cccs2)C(=O)NCCc2c[nH]c3ccccc23)cc1	-8	-38	25	-5	-24	1.2
O=C(O)C1CC1C(=O)N1CCN(c2ccc(Cl)c(Cl)c2)CC1 (stereo unspecified)	16	9	-4	0	0	-0.2
Cc1ccc(NS(=O)(=O)c2ccc(C(=O)N3CCN(c4ncccn4)CC3)cc2)cc1	65	-1	-2	.	-6	3.9
O=C(CCc1ccccc1)NNC(=O)Cc1ccc(Cl)cc1	8	0	26	7	4	-0.8
CC(=O)NC(Cc1cc(C)ccc1C)C(=O)N1CCN(C(=O)c2ccc([N+](=O)[O-])cc2)CC1 (stereo unspecified)	16	2	2	5	8	0.1
COC(=O)c1sc(-c2cccs2)cc1N	23	-4	1	11	7	2.0
Cc1cccc(NS(=O)(=O)c2ccc(C(C)(C)C)cc2)n1	14	-1	-21	.	2	-0.6
CCOc1ccc(NC(=S)N(CCc2c(C)[nH]c3ccc(C)cc23)Cc2ccco2)cc1	-6	-10	1	-17	-13	0.4
O=C1NC2(CCCCC2)N=C1c1ccc(Br)cc1	-5	-18	0	2	-4	-0.6
Cn1cccc1/C=C1\SC(=S)N(NC(=O)c2ccccc2Cl)C1=O	4	-16	2	?	-72*	0.1
CCOC(=O)CC(=O)CSc1nc2nc(C)cc(C)n2n1	7	8	2	12	2	0.7
Nc1c(Sc2ccccc2)c(=O)[nH]c(=O)n1Cc1ccccc1	13	-15	.	9	3	0.2
CC(C)CC[n+]1ccn(C2=C([O-])c3ccccc3C(=O)/C2=N\S(=O)(=O)c2ccccc2)c1	-4	24	12	11	-6	0.5
Nc1ccc(-n2nc(C(F)(F)F)cc2C(F)(F)F)cc1	-4	-4	-2	6	9	0.3
COCC(=O)NNC(=O)Cc1ccc(Cl)cc1	-7	0	0	.	0	0.4
O=C(Nc1ccc([N+](=O)[O-])cc1)Nn1cnnc1	13	-30	3	-1	-22	0.6
COc1cc(/C=C2\SC(N3CCC(C)CC3)=NC2=O)ccc1O	1	-14	-30	-14	-23	-0.6
CCN1CCN(CCNC(=O)Nc2ccc([N+](=O)[O-])cc2)CC1	-24	-4	3	4	8	-0.6
N#CC1=C(N)C(C#N)(C#N)C2(CCC3(CC2)OCCO3)C2CC3(CC=C12)OCCO3 (stereo unspecified)	-13	-3	5	-25	-13	-0.3
CCc1nnc(SCC(=O)Nc2ccc3c(c2)OCO3)o1	9	0	4	7	1	0.4
CC(C)NC(=O)c1cnc(Sc2ncc(C(F)(F)F)cc2Cl)n1C	4	-19	-20	-2	4	0.0
CC1CC1C(=O)N(C)CC(=O)Nc1ccccc1Br (stereo unspecified)	4	-3	.	0	3	-0.2
COc1ccc(-n2cc(CNCc3cnc4ccccn34)c(-c3cccc(F)c3)n2)cc1	-7	-12	-5	.	-10	-0.4

Whole records, quoted from the list. Order of values: TRPML1 blocker, D2 PAM, TRPV1 potentiator, CtBP-E1A inh, Six1-Eya2 inh, TRPML1 agonist
Shown for CC(=O)NC(Cc1cc(C)ccc1C)C(=O)N1CCN(C(=O)c2ccc([N+](=O)[O-])cc2)CC1 (stereo unspecified) : 16, 2, 2, 5, 8, 0.1
Shown for N#CC1=C(N)C(C#N)(C#N)C2(CCC3(CC2)OCCO3)C2CC3(CC=C12)OCCO3 (stereo unspecified) : -13, -3, 5, -25, -13, -0.3
Shown for CCc1nnc(SCC(=O)Nc2ccc3c(c2)OCO3)o1 : 9, 0, 4, 7, 1, 0.4

New compounds follow
SMILES	TRPML1 blocker	D2 PAM	TRPV1 potentiator	CtBP-E1A inh	Six1-Eya2 inh	TRPML1 agonist
Cc1ccc(C(=O)/C=C/c2ccccc2[N+](=O)[O-])cc1	-4	-8	-11	4	1	-0.5
CC(=O)N1N=C(c2ccc(Br)cc2)CC1c1ccc(Br)cc1 (stereo unspecified)	9	-2	.	6	-3	-1.1
CCc1ccc(/C=C/C(=O)c2ccc(N3CCOCC3)cc2)cc1	7	-6	-1	5	-5	-0.4
COC(Cn1c(-c2cccc(S(=O)(=O)N(C)C)c2)n[nH]c1=S)OC	5	-13	0	-25	-10	-0.4
CCn1c(SCc2ccccc2)nnc1C1CCCCC1	21	-8	-9	7	2	-0.3
COc1ccc(C(=O)NNC(=O)CN2CCC(n3nnc4cc(C(F)(F)F)ccc43)CC2)cc1	-4	13	-11	8	-1	0.3
COc1ccc(C2=NS(=O)(=O)N(C)C(C(=O)N3C(C)CCCC3C)=C2)cc1 (stereo unspecified)	-3	-7	16	3	2	-0.7
Cc1cccc2cc(/C=N/NC(=O)[C@H]3C[C@@H]3c3ccccc3)c(Cl)nc12	11	1	9	-4	-24	1.5
O=C1/C(=C/c2ccccc2)Nc2ccccc21	-8	-7	-4	7	3	?
C/C(=N\NC(=O)c1cccc(F)c1)c1ccc(Br)s1	-3	-9	-31	8	-2	2.5
Cc1cccc(NCCC#N)c1	23	-17	-9	9	2	-0.1
COc1cc(OC)c2ccc(=O)oc2c1C(CCN1CCCC(C)C1)c1ccc(N(C)C)cc1 (stereo unspecified)	5&9	-19	-2	-25	-29	0.4&-0.3
CCOC(=O)c1c(C)nc(C)c2c(=O)oc3ccccc3c12	-7	4	-11	22	12	1.3
Cc1cnc(=O)[nH]c1SCc1ccc([N+](=O)[O-])cc1	-15	-6	4	.	-1	0.2
COc1ccccc1CNC(=O)N[C@@H](Cc1ccccc1)C(=O)O	-10	-6	4	-2	10	0.8
O=C(Cn1nc(C(=O)O)c2ccccc2c1=O)NCc1ccco1	30	-7	5	.	-7	0.4
CCN(CC)S(=O)(=O)c1ccc(C)c(N=C=S)c1	-5	-15	-1	.	1	1.8
COc1cc(CN2C[C@@H](CO)O[C@@H](n3cnc4c(NCc5ccco5)ncnc43)C2)cc(OC)c1OC	.	1	.	1	-5	-0.1
Cc1nn(C(=O)c2ccco2)c(C)c1Sc1ccc(Br)cc1	-1	-16	-1	-7	2	0.6

Six compounds already listed, ordered by the value under D2 PAM, smallest number first:
Structure	TRPML1 blocker	D2 PAM	CtBP-E1A inh	Six1-Eya2 inh
C/C(=N\NC(=O)c1cccc(F)c1)c1ccc(Br)s1	-3	-9	8	-2
Cc1ccc(C(=O)/C=C/c2ccccc2[N+](=O)[O-])cc1	-4	-8	4	1
O=C1/C(=C/c2ccccc2)Nc2ccccc21	-8	-7	7	3
COc1ccccc1CNC(=O)N[C@@H](Cc1ccccc1)C(=O)O	-10	-6	-2	10
CCOC(=O)c1c(C)nc(C)c2c(=O)oc3ccccc3c12	-7	4	22	12
COc1ccc(C(=O)NNC(=O)CN2CCC(n3nnc4cc(C(F)(F)F)ccc43)CC2)cc1	-4	13	8	-1

Bioassay records deposited in PubChem BioAssay by National Center for Advancing Translational Sciences (NCATS).
